Rango release inh – qHTS Assay for Inhibitors of RanGTP induced Rango (Ran-regulated importin-beta cargo) - Importin beta complex dissociation; Biochemical FRET Rango-importin beta, RanGTP-induced dissociation; AID 540253, 2011; Snurportin-1 (Homo sapiens) + GTP-binding nuclear protein Ran (Homo sapiens) + Importin …; 340,000 tested, 0.071% active; Potency, µM (highest dose often 46.1 µM), inactives show top-dose activity change, negative = inhibition; active means falling FRET ratio curve, often poorly fitted, with flat reads before Ran was added; inconclusive means other falling curves, or compound fluorescence or quenching; inactive means flat or rising ratio curve;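 note: potency is the fitted concentration of half-maximal effect; % of control where 0% means no effect; nearly all actives have a fitted effect of over 45% in size; -100% = wells without RanGTP and RCC1; the record marks most hits as doubtful in a second field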
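Quantitative HTS using a FRET biosensor: 0.1 uM Rango, 0.25 uM importin beta, 0.6 uM Ran, 2 mM GTP, 0.2 uM RCC1 final, PBS with DTT, Tween-20 and BSA. Post-read taken 45 min after Ran addition.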
GLA inh pH 4.5 – qHTS Assay for Inhibitors of Human alpha-Galactosidase at pH 4.5; activity change, negative = inhibition, % at 105 µM; purified enzyme, 4-MU-alpha-Gal fluorescence, pH 4.5; 230,000 tested, under 10 active; Alpha-galactosidase A (Homo sapiens), P06280; inconclusive = small, poorly fitted or top-dose-only inhibition, or a rising curve; inactive = flat fitted curve, though single readings scatter; no compound was filed as active;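 note: 0% = full activity with enzyme and -100% = basal without enzyme; dose as in the result columns while the protocol names 77 µM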
Target sequence (P06280 whole entry, looked up): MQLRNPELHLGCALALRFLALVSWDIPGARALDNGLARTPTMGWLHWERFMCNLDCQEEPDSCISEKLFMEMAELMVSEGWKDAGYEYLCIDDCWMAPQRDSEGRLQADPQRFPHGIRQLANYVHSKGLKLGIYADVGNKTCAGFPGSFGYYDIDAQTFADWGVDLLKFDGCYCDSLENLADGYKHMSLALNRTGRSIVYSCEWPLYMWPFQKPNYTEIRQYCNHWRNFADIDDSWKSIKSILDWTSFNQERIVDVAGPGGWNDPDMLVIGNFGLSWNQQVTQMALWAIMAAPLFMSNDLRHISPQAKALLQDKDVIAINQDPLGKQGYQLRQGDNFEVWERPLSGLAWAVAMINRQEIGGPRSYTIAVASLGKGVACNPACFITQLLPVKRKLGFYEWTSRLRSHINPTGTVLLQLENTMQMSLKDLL
Rango complex inh – qHTS Assay for Inhibitors of Rango (Ran-regulated importin-beta cargo) - Importin beta complex formation; Importin subunit beta-1 (Homo sapiens), Q14974; Potency, µM (top dose mostly 92.2 µM), for inactives: at the top dose inhibition of complex formation; Rango CFP/YFP FRET sensor + importin beta, 45 min; 340,000 tested, 0.031% active; active = rising FRET ratio curve, often small or poorly fitted; inconclusive = mostly compound fluorescence or quenching in the first reads; inactive = flat curves in all reads;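 note: potency is the fitted concentration of half-maximal effect; 0% = DMSO wells and 100% = buffer wells lacking importin beta; nearly all actives have a fitted effect of over 15% in size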
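FRET biosensor (snurportin 1 IBB flanked by EYFP and cerulean), 50 nM, with compound 5 min, then 0.125 microM importin beta in PBS, 1 mM DTT, 0.02% Tween-20, 0.1% BSA. CFP/YFP ratio read after 45 min at room temperature; pre-read flags interference.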
miR-21 FLuc – qHTS Assay for Modulators of miRNAs and/orActivators of miR-21. HeLa miR-21 FLuc reporter, luciferase, 48 h. Potency, µM (titrated, usually from 38.3 µM), for inactives: at the highest dose reporter change, positive = more light. 340,000 tested, under 10 active. AID 2288, 2010; active = well fitted rising curve with a large enough effect; inconclusive = small, poorly fitted or top-dose-only effect; inactive = no such curve, though single readings can be large or run the other way;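 note: % of control where 0% means no effect; miR-21 action dims this reporter so a rising signal means less miR-21 action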
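HeLa cells endogenously expressing miR-21, stably carrying CMV-driven firefly luciferase with a downstream miR-21 binding site, 2000 cells/well. Titrations up to approximately 40 uM, 48 hours; luciferase luminescence read.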
Active calls of the source: *; ? = inconclusive; . = no result given; & = joins results of further samples; [ ] = dose if it differs, or a comment. These rows are one share of the data. The share of hits here may be higher or lower than overall.

Molecule | Rango release inh | GLA inh pH 4.5 | Rango complex inh | miR-21 FLuc
COc1ccc(N2CCN(C(=O)c3ccc4c(=O)n(Cc5ccc6c(c5)OCO6)c(=O)[nH]c4c3)CC2)cc1 | -7% | . | 2.7% | 2%
COc1cc(/C=N/NC(=O)c2cc(-c3ccco3)nc3ccccc23)cc(OC)c1O | ? | -10 | -8.1% | 0%
COC(=O)[C@@H](NC(=O)/C=C/c1ccc(OC)cc1)C(C)C | 16% | -4[21.1 µM] | -1.4% | -6%
CC1CCCCC1NC(=O)COC(=O)c1cccn1C (stereo not given) | -11% | . | 0.3% | .
Cn1c(=O)c2c(nc(SCC(=O)NCC3CCCO3)n2C)n(C)c1=O (stereo not given) | -15% | -2 | 1.3% | -1%
COCCn1c(SCC(=O)Nc2nnc(C)s2)nnc1-c1ccoc1C | 5% | 6 | 1.2% | 3%
Cn1c(=O)c2ccccc2n(CC(=O)N2CCCc3ccccc32)c1=O | -3% | . | -1.5% | 2%
NC(=O)CSc1nc(O)cc(=O)n1-c1ccccc1 | -11% | 5 | -0.4% | -4%
Cn1c(=O)c2c(nc(NCCCN3CCOCC3)n2Cc2ccc(Cl)cc2Cl)n(C)c1=O | . | -11 | . | -4%
Cc1cc(C)cc(OCC(=O)OCC(=O)Nc2cc(S(=O)(=O)N3CCOCC3)ccc2C)c1 | -8% | . | 0.8% | .
N#Cc1c(NC(=O)c2cnn3cccnc23)sc2c1CCCC2 | 5% | -18 | 2.0% | -44%
O=C(Nc1nc(-c2ccccc2)ns1)c1ccncc1 | -8% | 0 | 3.1% | 1%
Cc1ccc2nc3ccc(N4CCCC4)nn3c(=O)c2c1 | -16% | 14 | ? | -39%
Cc1cccc(NC(=O)CSc2nccn2C)c1 | -16% | . | -9.2% | .
COc1ccc(C(=O)N/C(=C/c2cccnc2)C(=O)N2CCN(C)CC2)cc1OC | 19% | . | -0.1% | 2%
CC(=O)Cn1c(CN2CCCC2)nc2ccccc2c1=O | -10% | 10 | -4.6% | -2%
CCOc1ccccc1N1CC(C(=O)Nc2cc(Cl)ccc2C)CC1=O (stereo not given) | -14% | . | -1.6% | 8%
N#CCCN(C(=O)COC(=O)CSc1ccc(Cl)cc1)c1ccccc1 | 0% | . | -0.4% | .
COCCCNC(=S)N/N=C/c1ccc2c(c1)OCO2 | -2% | -5 | -2.6% | -12%
CCCCCCOc1ccc(/C(C)=N/NC2=NCCN2)cc1[N+](=O)[O-] | -5% | 5 | 6.9% | -22%
CCC(C)N(C(=O)CSc1nc2ccc(OC)cc2[nH]1)C1CCS(=O)(=O)C1 (stereo not given) | 29% | . | -0.6% | .
COc1ccc(NC(=O)[C@@H]2CCCN2C(=O)c2cccs2)cc1S(=O)(=O)N1CCCCC1 | -18% | . | -1.3% | .
CN(C)CCNS(=O)(=O)c1ccc(Cl)cc1 | -24% | 16 | 5.6% | -3%
Oc1cccc(-c2nc3c4c(ncn3n2)-c2ccccc2CC42CCCC2)c1 | 12% | -6 | -0.4% | ?
CC(C)NC(=NCc1ccc(Cl)cc1Cl)Nc1ccccc1 | 1% | . | -2.0% | 20%
COc1ccc(Br)cc1C(=O)Nc1ccccc1N1CCN(C(=O)c2ccccc2)CC1 | 2% | -13 | 2.1% | 18%
CNc1snc(C)c1C(=O)OCC(=O)N(C)c1ccccc1 | -6% | . | 0.1% | .
Cc1ccccc1NC(=O)Cc1cccc(C(F)(F)F)c1 | 14% | 2 | 2.1% | -10%
COC(=O)Cn1c(O)c(N=NC(=O)CNC(=O)c2ccncc2)c2ccccc21 | -4% | . | -0.6% | 0%
COc1ccc(NC(=O)/C(Cl)=C(/Cl)S(=O)Cc2ccc(Cl)cc2)cn1 (stereo not given) | 7% | -7 | 0.0% | ?
CC1CCc2[nH]nc(C(=O)O)c2C1 (stereo not given) | 16% | 5 | -2.6% | -6%
O=C(CS(=O)(=O)c1ccccc1)Nc1cccnc1 | 16% | 1 | -3.0% | -2%
Cc1ccc(Nc2nc(N)c([N+](=O)[O-])c(N3CCOCC3)n2)cc1C | 18% | 0 | 1.1% | -6%
COc1ccc(C(=O)COC(=O)c2nn(C)cc2Cl)cc1 | 3% | . | 1.8% | -24%
C/C(CC(=O)NC1CCCC1)=N\NC(=O)Cc1cccs1 | 1% | 0 | -3.8% | -7%
Cn1c(=O)n(Cc2ccc(F)cc2)c(=O)c2c1nc1n2CCN1Cc1ccco1 | 1% | 4 | -2.2% | -2%
Cc1cc(NC(=O)c2cc(S(=O)(=O)N3CCCCC3)ccc2C)no1 | -9% | . | -0.9% | .
COc1ccc(C)cc1NC(=O)Cc1c(C(=O)O)n(C)c2ccccc12 | 11% | . | -1.5% | -5%
CC(=O)N1N=C(c2ccccc2)OC1c1ccc([N+](=O)[O-])s1 (stereo not given) | 0% | -3 | -2.1% | ?
COc1cc(SC)ccc1C(=O)Nc1ccccc1C#N | 10% | 0 | ? | -45%
Cn1c(CCNS(=O)(=O)c2ccc(F)cc2)nnc1SCc1cccnc1 | -3% | . | -0.9% | 2%
Cc1cc(SCC(=O)NN=C2CCN(C(C)C)CC2)c(C)cc1Br | -16% | -7 | -1.1% | -14%
COc1cc(C2CC(=O)NC3=C2C(=O)CC(C)(C)C3)cc(OC)c1O (stereo not given) | -7% | 2 | 3.7% | -2%
Cc1cc(Cl)ccc1C(=O)C1CCCN(C(=O)c2nonc2C)C1 (stereo not given) | -9% | . | -5.3% | 10%
O=C(COC(=O)c1ccccc1[N+](=O)[O-])Nc1cc(S(=O)(=O)N2CCOCC2)ccc1N1CCCC1 | 0% | 3 | -0.5% | -1%
CC(=O)c1ccccc1NCC(=O)Nc1ccc(C)cc1 | -14% | 7 | -2.7% | -30%
CCCn1cc(C(=O)OCC)c(=O)c2cc(F)c(F)cc21 | 1% | -2 | 0.8% | 5%
CC(NS(=O)(=O)c1cccc(Cl)c1)C(=O)Nc1ccc(-c2nc3ccccc3s2)cc1 (stereo not given) | 1% | 3 | -1.3% | -28%
O=C(Cn1c(C(F)(F)F)nc2ccccc21)N1CCCC1 | 8% | 3 | 4.1% | 0%
Cc1ccc(C)c(N2CCN(c3nnnn3-c3ccccc3)CC2)c1 | 8% | 4 | 4.6% | 13%

(listing goes on)
Molecule | Rango release inh | GLA inh pH 4.5 | Rango complex inh | miR-21 FLuc
O=C(COC(=O)Cn1cnc2ccccc21)Nc1cc2c(cc1Cl)C(=O)c1ccccc1C2=O | -5% | -2 | 0.1% | -33%
O=C(CCSc1ccccc1)Nc1ccccc1C(=O)N1CCCC1 | 15% | 15 | 2.5% | -10%
C=CCn1c(NCc2ccc(N(C)C)cc2)nc2ccccc21 | 8% | -7 | 2.1% | -33%
O=C(O)c1ccc(NC2=Nc3cccc4cccc2c34)cc1 | -4% | 1 | ? | -22%
COc1ccc(CCn2c(-c3ccco3)nc3nc4ccccc4nc32)cc1 | -23% | -3 | ? | 2%
Cc1ccc(S(=O)(=O)Nc2ccc(=O)n(Cc3ccc(Cl)c(Cl)c3)c2)cc1 | -15% | -7 | -6.6% | -5%
Cc1nc2scc(C)n2c(=O)c1S(=O)(=O)NCCc1ccccc1 | ? | . | -8.1% | 0%&3%
COc1ccc2c(c1)c(=O)c(C(=O)c1ccc(C)cc1)cn2CC(=O)Nc1ccc(F)cc1 | -8% | -1 | -2.9% | 21%
Cc1nnc(SCC(=O)Nc2ccc(S(N)(=O)=O)cc2)n(N)c1=O | 0% | . | 2.3% | .
COC(=O)c1ccc2c(=O)n(CCCCCC(=O)N3CCN(c4ccccc4)CC3)c(=O)[nH]c2c1 | -4% | 2 | -2.4% | 3%
C=CCNC(=O)c1ccc(CN2CCC(Cc3ccccc3)CC2)cc1 | 6% | . | -1.6% | -3%
Cc1[nH][nH]c(=O)c1C(c1ccc(-c2ccccc2C(=O)O)o1)c1c(C)[nH][nH]c1=O | 0% | -3 | 1.3% | -3%
N#Cc1ccc(NC(=O)Nc2cccc(C#N)c2)cc1 | -5% | -4 | ? | ?
Nc1cccc2c1C(=O)N(CCOc1ccccc1F)C2=O | ? | . | ? | -19%
O=C(COC(=O)c1ccc(Cl)c(S(=O)(=O)N2CCN(c3ccc(F)cc3)CC2)c1)Nc1cccc(Cl)c1 | 2% | -2 | 1.6% | -1%
COC(=O)CSc1nc2ccccc2o1 | 10% | -24 | -0.4% | -5%
Oc1ccccc1C=NC1=NN(c2cccc(C(F)(F)F)c2)CC1 | -2% | 3 | -0.4% | -11%
O=C(COc1ccccc1)Nc1ccc2c(c1)Cc1cc(NC(=O)COc3ccccc3)ccc1-2 | 19% | 8 | -0.4% | -1%
O=C(NCc1ccccc1)C1CCN(S(=O)(=O)c2cc([N+](=O)[O-])ccc2Cl)CC1 | 12% | 3 | -1.4% | -1%
CCOC(=O)c1c(NC(=O)CN2C(=O)NC3(CCCCC3)C2=O)sc(C)c1-c1ccc(C)cc1 | 2% | -6 | -4.1% | 3%
Cc1c(NC(=O)Cn2[nH]c(=O)c3ccccc3c2=O)c(=O)n(-c2ccccc2)n1C | 1% | -1 | 0.0% | -3%
O=C(Nc1ccc2oc(-c3ccc(F)cc3)nc2c1)c1ccccc1F | -10% | -2 | 1.3% | -31%
Cc1sc2nc(CN3CCOCC3)nc(NS(=O)(=O)c3ccc4c(c3)OCCO4)c2c1C | -23% | 6 | -0.7% | -11%
Cc1ccccc1N(CC(=O)NC1CCCC1)C(=O)c1oc(C(C)(C)C)cc1C | 3% | 4 | -3.7% | -3%
CCN1CCN(C(=O)/C=C/c2ccccc2[N+](=O)[O-])CC1 | 22% | 2 | -0.8% | -4%
COc1ccc2[nH]cc(CCNS(=O)(=O)c3ccc(NC(C)=O)cc3)c2c1 | 2% | -4[21.1 µM] | 2.3% | 0%
COc1ccc(-n2c(=O)c3c4c(sc3n(Cc3cccc(F)c3)c2=O)CN(C(C)=O)CC4)c(OC)c1 | . | -2 | . | -8%
O=C(Nc1nc2n(n1)C(c1ccc(F)cc1)CC(c1ccccc1)N2)c1ccco1 (stereo not given) | -6% | -3 | -4.9% | 6%
CCc1ccc(C2CC(=O)N(c3ccc(F)cc3)C3=C2C(=O)OC3)cc1 (stereo not given) | 1% | -2 | -1.4% | -1%
CC(CCc1ccco1)NC(=O)CCc1nnc2ccc(NCc3ccccc3Cl)nn12 (stereo not given) | 9% | . | 0.1% | -1%
CCCC(=O)O[C@H]1C[C@@H](C)N(C(=O)c2ccccc2)c2ccc(C)cc21 | -8% | -3 | -2.5% | 12%
Cc1ccc(NC(=O)c2cnn(C)c2)cc1[N+](=O)[O-] | 0% | 6 | -2.7% | -11%
Cc1ccc(OCCCC(=O)Nc2ccccc2C(F)(F)F)cc1 | 7% | -8 | 2.8% | -5%
O=C(CCN=C1NS(=O)(=O)c2ccccc21)OCC(=O)c1ccccc1Cl | 0% | . | 0.6% | .
Cc1cc(C)cc(NC(=O)CSc2nc(N)c(NC(=O)c3ccc(Br)o3)c(=O)[nH]2)c1 | 4% | . | -3.5% | -4%
O=C(Nc1ccn(CC(=O)N2CCN(c3ccccn3)CC2)c(=O)n1)OCc1ccccc1 | 1% | . | -0.6% | .
COC(=O)Cn1c(=N)n(CCN2CCCCC2)c2ccccc21 | ? | -11 | -3.1% | -2%
CC1CCC2(CC1)NC(=O)N(NC(=O)C1CCN(C(=O)c3ccc(Cl)cc3)CC1)C2=O (stereo not given) | 6% | . | -1.0% | .

Single records (already shown). Screens in order: Rango release inh, GLA inh pH 4.5, Rango complex inh, miR-21 FLuc
Cc1cc(C)cc(NC(=O)CSc2nc(N)c(NC(=O)c3ccc(Br)o3)c(=O)[nH]2)c1 as listed: 4%, ., -3.5%, -4%
O=C(CCN=C1NS(=O)(=O)c2ccccc21)OCC(=O)c1ccccc1Cl as listed: 0%, ., 0.6%, .

Compound activity deposited in PubChem BioAssay by National Center for Advancing Translational Sciences (NCATS).
